Assay outcomes deposited in PubChem BioAssay by ICCB-Longwood Screening Facility, Harvard Medical School.
Sa growth 42C: S. aureus growth inhibition at 42 and 30 °C, primary screen, LtaS inhibitor project, RN4220, two temperatures; OD600, 20 h, 42 °C; hits give low values; relative growth, % (concentration not given with the values); 170,000 compounds, 0.53% hits; AID 720641, 2013;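 active = growth at 42 °C up to 50% and 20 or more points under that at 30 °C, or under 10% at both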;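 note: 300 nL library stock went into each well; scaled to the means of positive and negative controls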
HCMV UL50-53 inh: inhibitors of HCMV UL50-UL53 interaction, biochemical, HTRF; HCMV UL50-UL53 nuclear egress complex (human cytomegalovirus); 190,000 compounds, 0.15% hits; normalized percent inhibition; inhibition, % (concentration not given with the values); AID 1918969, 2023;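 active = both replicates at 50% or more, plus weaker picks with an unusually low signal ratio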;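 note: stock transfer was 100 nL into about 20 µL; 0% = negative control wells and 100% = wells with untagged competitor protein; inactives centre near -12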
GIV Gai3 FP: inhibitors of GIV peptide binding to Galpha-i3, primary screen, biochemical, fluorescence polarization, FITC-GIV GBA peptide, rat Galphai3. 90 min; hits give low values; scaled: aluminum fluoride 0%, vehicle 100%. Guanine nucleotide-binding protein G(i) subunit alpha-3 (Rattus norvegicus), P08753. 210,000 compounds, 0.42% hits. AID 1224905, 2016. percent of control (FP), % (test concentration not listed);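 active = replicate mean at 85% of control or lower, very high polarization wells dropped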;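 note: wells of about 15 µL received 100 nL stock; the first replicate is given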
Target sequence (P08753 whole entry, looked up): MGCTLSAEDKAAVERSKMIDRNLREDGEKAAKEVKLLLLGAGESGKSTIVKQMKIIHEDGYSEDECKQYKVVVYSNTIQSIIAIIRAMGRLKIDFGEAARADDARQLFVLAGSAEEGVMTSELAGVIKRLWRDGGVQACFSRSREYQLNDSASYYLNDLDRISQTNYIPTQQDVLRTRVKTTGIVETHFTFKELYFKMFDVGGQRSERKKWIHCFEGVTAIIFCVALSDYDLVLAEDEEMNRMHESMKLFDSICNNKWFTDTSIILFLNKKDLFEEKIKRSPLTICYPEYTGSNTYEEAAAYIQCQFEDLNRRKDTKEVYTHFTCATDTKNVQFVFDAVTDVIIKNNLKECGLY
Sa growth 42C second temp: recorded beside Sa growth 42C, whose call it bears; relative growth, %; measured here: growth at 30 °C;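 optical density after 20 h as mean of two plates; 100% = untreated growth and lower means inhibition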
An asterisk follows results filed as active; / = not tested or not shown; & = joins results of further samples.

A first look, two compounds:
Short forms: A = Sa growth 42C; B = Sa growth 42C second temp; C = HCMV UL50-53 inh; D = GIV Gai3 FP
COc1ccc(N2CCN(c3ncnc4sc(C(=O)N5CCCC5)c(C)c34)CC2)cc1
  A = /; B = /; C = -16.7; D = 106.1

CC(C)(C)OC(=O)N1CCCC(C(=O)CC#N)C1 (stereo unspecified)
  A = 88.8; B = 78.9; C = -16.8; D = 105.9

Results (from the top)
Short forms: A = Sa growth 42C; B = Sa growth 42C second temp; C = HCMV UL50-53 inh; D = GIV Gai3 FP
COc1ccc(N2CCN(c3ncnc4sc(C(=O)N5CCCC5)c(C)c34)CC2)cc1
  A = /; B = /; C = -16.7; D = 106.1

CC(C)(C)OC(=O)N1CCCC(C(=O)CC#N)C1 (stereo unspecified)
  A = 88.8; B = 78.9; C = -16.8; D = 105.9

Cc1cccc2nc(-c3cccnc3Oc3ccccc3)oc(=O)c12
  A = 102.9; B = 93.3; C = 2.7; D = 102.5

CCOc1ccccc1NC(=O)C1CCCN(S(=O)(=O)c2ccc3c(c2)CCCN3C(C)=O)C1 (stereo unspecified)
  A = 95.5; B = 80.2; C = /; D = 99.3

CN1C(=O)C2C(N=CN2CCCO)N(C)C1=O (stereo unspecified)
  A = 73.5; B = 86.8; C = -10.1; D = /

COc1ccc(C2CC(=O)C3=C(C2)Nc2ncnn2C3c2cccc(F)c2)cc1 (stereo unspecified)
  A = /; B = /; C = -41.1; D = 102.2

COc1ccc(-c2cc(-c3ccc(C)cc3)nc3c2COc2ccccc2-3)cc1
  A = 82.1; B = 84.9; C = -19.3; D = 108.6

O=C1CCCC1Sc1nnnn1-c1ccccc1 (stereo unspecified)
  A = 92.0; B = 97.0; C = 4.0; D = /

Clc1ccc(NCc2nnc(-c3ccccc3)o2)cc1
  A = 93.1; B = 79.2; C = -11.7; D = 107.3

CCCCSc1nnc2c(n1)OC(c1c(C)[nH]n(-c3ccccc3)c1=O)Nc1ccccc1-2 (stereo unspecified)
  A = /; B = /; C = -49.6; D = 107.4

CO[C@H]1[C@@H]([C@@]2(C)O[C@@H]2CC=C(C)C)[C@]2(CC[C@H]1OC(=O)/C=C/C=C/C=C/C=C/C(=O)O)CO2
  A = 82.5; B = 58.9; C = -36.5; D = 100.3

CC1=C(c2cccc(Br)c2)S(=O)(=O)N(Cc2ccc(C(=O)NC(C)C)cc2)C1=O
  A = /; B = /; C = -16.6; D = 99.8

Cc1ccc2nc(-c3ccc(O)cc3)c(Nc3ccc(Cl)cc3)n2c1
  A = 84.9; B = 96.7; C = -9.7; D = 103.7

COc1ccc(-c2cc(C(F)(F)F)n3nc(C(=O)Nc4ccc5c(c4)OCO5)cc3n2)cc1OC
  A = /; B = /; C = -8.4; D = 104.7

N#CCOc1ncn(-c2ccccc2)n1
  A = /; B = /; C = -15.7; D = 102.4

CC(=O)Nc1nc2ccccc2n1CCN1CCCC1
  A = 94.8; B = 101.3; C = -2.6; D = 110.9

CNC(=O)CN1CCC(c2nc3ccccc3[nH]2)CC1
  A = 107.7; B = 92.8; C = -28.3; D = 106.1

COc1cccc(C2C(C(=O)Nc3ccc(Br)cn3)=C(C)NC3=C2C(=O)CCC3)c1 (stereo unspecified)
  A = /; B = /; C = 3.5; D = 99.8

Cc1cccc(-c2nc3ccccc3c(=O)[nH]2)c1
  A = 93.3; B = 79.8; C = -2.4; D = 115.0

COc1cccc(NC(=O)C(=O)NCCc2sc(-c3cccc(C)c3)nc2C)c1
  A = 109.4; B = 101.2; C = /; D = 105.5

CC(C)(C)c1ccc(C(=O)NN)s1
  A = 83.6; B = 87.3; C = 4.3; D = 107.8

CN(C(=O)c1c2c(nc3ccccc13)C(=O)N(C1CCCCC1)C2)C1CCCCC1
  A = 105.5; B = 94.5; C = -24.8; D = 102.0

COc1ccc(-c2noc(-c3cc(-c4ccc(F)cc4)n[nH]3)n2)cc1
  A = 97.2; B = 88.7; C = /; D = 104.4

CN(C)CCN1C(C(=O)c2ccccc2)=C(OC(=O)C(C)(C)C)c2ccccc2S1(=O)=O
  A = /; B = /; C = -7.5; D = 100.2

COc1ccc2c(c1)nc(SCC(=O)C(C)(C)C)n2C
  A = 99.5; B = 113.6; C = 2.4; D = 102.7

CCNC(=O)c1c2c(nc3ccccc13)C(=O)N(C1CCCCC1)C2
  A = 104.1; B = 96.1; C = /; D = 99.9

Cc1cccc(-n2c(=O)[nH]c3c(C(N)=O)nc(-c4cccnc4)nc32)c1
  A = /; B = /; C = -3.5; D = 103.6

Cc1ccc(NC(=O)C(=O)NCC(c2ccc3c(c2)OCO3)N2CCN(C)CC2)c(C)c1 (stereo unspecified)
  A = 111.6; B = 93.2; C = /; D = 98.8

Cc1nc(NCCCCCO)c2nnn(Cc3ccc(F)cc3)c2n1
  A = 84.4; B = 83.3; C = -1.2; D = 100.5

COc1ccc(-c2cc(C(=O)NC(Cc3c[nH]c4ccccc34)C(=O)O)c(C)o2)cc1OC (stereo unspecified)
  A = 119.1; B = 79.9; C = -2.1; D = 106.8

O=C(CCn1cnc2ccccc2c1=O)NCc1ccccc1
  A = 101.7; B = 87.9; C = /; D = 103.0

COc1ccccc1C1Nc2c(sc3nc(C)cc(C)c23)C(=O)N1c1ccccc1 (stereo unspecified)
  A = 105.6; B = 91.6; C = -21.7; D = 100.4

O=C(c1ccccc1)c1ccccc1C(=O)N1CCc2ccccc2C1
  A = 111.6; B = 81.0; C = -7.4; D = /

O=c1c(Nc2ccccc2)c(-c2ccc(Cl)cc2)c1=O
  A = /; B = /; C = -18.0; D = 103.4

Cc1cccc(-n2c(SCC(=O)NCc3ccccc3)nc3c(oc4ccccc43)c2=O)c1
  A = 111.0; B = 95.2; C = /; D = 100.0

Cc1ccccc1NC(=S)N(CCN(C)C)C(C)c1ccncc1 (stereo unspecified)
  A = 101.8; B = 92.4; C = -1.9; D = 99.8

COc1ccc(N2CCN(CCCNS(=O)(=O)c3c(C)noc3C)CC2)cc1
  A = 99.4; B = 85.6; C = /; D = 107.8

CCOc1ccc(C(CC(=O)O)NC(C)=O)cc1 (stereo unspecified)
  A = 92.0; B = 91.0; C = 6.5; D = 101.2

Cc1cccc(Nc2nc3nonc3nc2NC(C)C)c1C
  A = /; B = /; C = -27.4; D = 108.8

COc1ccc(CNC(=O)c2cc3sccc3n2Cc2ccc(F)cc2)cc1
  A = 107.1; B = 101.2; C = 8.5; D = 97.5

CCn1c(NC(=O)c2cccc(Cn3cc(Cl)cn3)c2)nc2ccccc21
  A = 91.5; B = 72.0; C = -0.9; D = 108.0

Cc1ccc(S(=O)(=O)N2CCN(C(=O)COC(=O)c3ccccc3C)CC2)c(C)c1
  A = 103.5; B = 86.3; C = -25.7; D = /

COc1ccc(N=Nc2c(-c3ccc(OC)cc3)[nH]oc2=O)cc1
  A = 101.6; B = 104.7; C = -8.7; D = 49.0*

COCCNC(=O)CCCn1c(SCc2ccccc2Cl)nc2c(sc3ccccc32)c1=O
  A = 99.6; B = 105.4; C = -5.0; D = 102.3

CC(c1ccccc1)N(C)CN1C(=O)c2ccccc2C1=O (stereo unspecified)
  A = 90.8; B = 79.0; C = -62.1; D = /

Fc1ccc(C(NC2CCCC2)c2nnc(-c3ccccc3)o2)cc1 (stereo unspecified)
  A = 103.5; B = 94.5; C = -14.9; D = 100.3

COc1ccc(NS(=O)(=O)c2cc(-c3cc(C)[nH]n3)ccc2C)cc1OC
  A = 90.2; B = 79.3; C = 16.5&-8.7; D = 111.4&105.0

Cn1c(=O)c2nc(-c3nc4ccccc4[nH]3)c(N)nc2n(C)c1=O
  A = 102.1; B = 84.6; C = -16.5; D = 105.2

CC(C)n1nc(C(N)=O)c2ccccc2c1=O
  A = 70.3; B = 85.8; C = -20.9; D = /

CC(=O)N1CCOc2ccc(S(=O)(=O)N3CCC(C(=O)NCc4ccc(Cl)cc4)CC3)cc21
  A = 89.3; B = 84.3; C = -31.5; D = 99.3

5 compounds out of the list above, ordered by the number in GIV Gai3 FP, descending:
compound | GIV Gai3 FP
CCOc1ccc(C(CC(=O)O)NC(C)=O)cc1 (stereo unspecified) | 101.2
Cc1cccc(-n2c(SCC(=O)NCc3ccccc3)nc3c(oc4ccccc43)c2=O)c1 | 100.0
CCNC(=O)c1c2c(nc3ccccc13)C(=O)N(C1CCCCC1)C2 | 99.9
CC(=O)N1CCOc2ccc(S(=O)(=O)N3CCC(C(=O)NCc4ccc(Cl)cc4)CC3)cc21 | 99.3
Cc1ccc(NC(=O)C(=O)NCC(c2ccc3c(c2)OCO3)N2CCN(C)CC2)c(C)c1 (stereo unspecified) | 98.8

Going on with the list.
Short forms: A = Sa growth 42C; B = Sa growth 42C second temp; C = HCMV UL50-53 inh; D = GIV Gai3 FP
Cn1cc(S(=O)(=O)N2CCOCC2)cc1C(=O)N1CCN(CCOc2ccc(Cl)cc2)CC1
  A = 95.3; B = 86.7; C = -25.7; D = 100.2

Cc1ccc(N(C)S(=O)(=O)c2ccc3[nH]cc(C(=O)O)c(=O)c3c2)cc1C
  A = 101.9; B = 83.2; C = -33.4; D = 105.5

CCC(C)(C)NC(=O)Cc1c[nH]c2ccccc12
  A = 90.4; B = 86.2; C = -17.3; D = /

COc1ccc2c(c1)nc(SCC(C)O)n2C (stereo unspecified)
  A = 94.1; B = 92.0; C = -5.8; D = /

COc1ccc(-c2cc(C(F)(F)F)nc(SCC(=O)N3CCC(C)CC3)n2)cc1
  A = 89.1; B = 81.3; C = -16.9&-10.1; D = 102.2&102.1

CC(=O)c1ccc(N2CCN(C(=O)C3CCN(S(=O)(=O)c4c(C)noc4/C=C/c4ccccc4F)CC3)CC2)cc1
  A = 106.8; B = 100.6; C = /; D = 100.3

COc1ccccc1/C=C1\C(=O)/C(=C/c2ccccc2OC)C2CCC1N2C
  A = 85.6; B = 70.7; C = -44.2; D = 103.3

Cc1c(N2CCN(C(=O)CCC3CCCC3)CC2)c(=O)n(C)c(=O)n1-c1ccccc1
  A = /; B = /; C = -8.7; D = 105.3

Cc1ccc(Cl)cc1NC(=O)COC(=O)Cc1ccc(Cl)cc1
  A = 108.5; B = 86.7; C = -15.4; D = /

COc1ccc(-c2ccc(SC)nn2)cc1OC
  A = 80.2; B = 74.4; C = -42.3; D = 104.5

COc1cccc(OC)c1OCCNCC1CSc2ccccc2O1 (stereo unspecified)
  A = /; B = /; C = -24.3; D = 107.0

C=CCn1c(NC)nc2c1c(=O)[nH]c(=O)n2C
  A = 78.0; B = 113.5; C = 19.6; D = 103.6

CCOc1cc(C(=O)Oc2cc(=O)oc3ccccc23)cc(OCC)c1OCC
  A = 111.5; B = 89.3; C = -4.4; D = 93.9

CN1CCC(N2CCCC(C(N)=O)C2)CC1 (stereo unspecified)
  A = 87.5; B = 114.7; C = -6.6; D = 97.5

O=C(CSc1nnc(-c2ccccc2)o1)c1cccc([N+](=O)[O-])c1
  A = 92.1; B = 99.4; C = 6.7; D = 105.3

O=C(O)c1cccc(Cl)c1C(=O)O
  A = 87.7; B = 92.2; C = -20.6; D = 106.5

CN(C)C=Nc1nc2ccccc2nc1Cl
  A = 77.7; B = 93.9; C = -48.8; D = /

COc1ccc(C2C=C(c3ccccc3)NC(=S)S2)cc1OC (stereo unspecified)
  A = 101.0; B = 92.2; C = 14.7; D = 105.4

Cn1c(NCc2cccs2)nc2ccccc21
  A = 109.4; B = 74.8; C = -1.1; D = 104.3

O=c1c2oc3ccccc3c2[nH]c(=S)n1C1CC1
  A = /; B = /; C = -27.2; D = 98.2

NC(=O)Cn1cnc2cc3c(cc21)OCCO3
  A = /; B = /; C = 16.8; D = 103.5

CC(C)n1c(SCc2ccccc2)nnc1C1CCCN(CC(N)=O)C1 (stereo unspecified)
  A = 93.8; B = 80.0; C = 4.2; D = 102.7

Cc1cc(=O)n2[nH]c(CN(C(=O)C(C)(C)C)c3ccccc3)nc2n1
  A = /; B = /; C = -11.3; D = 103.6

CSc1nnc(-c2cc(Br)ccc2NC(C)=O)c(=O)[nH]1
  A = 94.6; B = 88.2; C = -19.6; D = 101.0

O=c1[nH]c(O)c(/C=N/N2CCOCC2)c(=O)[nH]1
  A = 76.3; B = 84.0; C = -21.3; D = 105.6

COc1ccc(C(=O)Nc2ccc3sc(C)nc3c2)cc1
  A = /; B = /; C = -9.1; D = 100.8

CCOc1cc(C2C3=C(CC(c4ccccc4O)CC3=O)Nc3onc(C)c32)ccc1OC (stereo unspecified)
  A = /; B = /; C = 1.8; D = 106.9

CC1(C)C2CC=C(/C=C(\C#N)C(N)=O)C1C2 (stereo unspecified)
  A = 97.1; B = 94.7; C = -20.6; D = /

CC(C)(C)N1CSC(=S)N(Cc2ccco2)C1
  A = 61.0; B = 15.0; C = -16.9; D = 100.4

CN(NC1OC(=O)c2ccccc21)c1ncc(Cl)cc1C(F)(F)F (stereo unspecified)
  A = 104.1; B = 69.0; C = 1.8; D = 101.5

Cn1c(=O)c(=O)[nH]c2cc(-c3noc(-c4ccccc4Cl)n3)ccc21
  A = /; B = /; C = 15.0; D = 99.2

CN(CC(=O)Nc1ccccc1Cl)S(=O)(=O)c1ccc(C(=O)N2CCOCC2)s1
  A = 99.8; B = 88.4; C = /; D = 101.0

CC(=O)N(CC(=O)Nc1ccc(C)cc1)c1ccccc1
  A = 97.1; B = 103.3; C = 8.9; D = /

CCOc1ccccc1NC(=O)CN1Cc2ccccc2C1=O
  A = 97.8; B = 88.7; C = /; D = 101.7
